INS promoter inh: TRM-6 insulin promoter activity inhibition; 130,000 compounds, 0.9% hits; TRM-6 cells (human fetal islet line), insulin promoter-eGFP reporter, imaging; reporter expression induced with tamoxifen; AID 1273; inhibition, % at 2 µM;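 active = inhibition above the mean plus 3 SD, with well images judged a real hit on visual review, cut at about 60% in these data, passing the limit was not always enough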
RGS16-Gao: modulates binding between human RGS16 and Galphao; AID 1441; bead-based flow cytometry RGS16-Galphao binding, fluorescence; actives lie on both sides; 220,000 compounds, 0.38% hits; binding response (% of control), % at 10 µM;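 active = below 25% or above 175%, edge rows of some plates excepted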;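 also: Galphao activated by GDP with aluminum fluoride before binding; 100% = wells without compound and 0% = beads without RGS; some results beyond the cut were filed as inactive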
Target sequence (O15492 whole entry, looked up): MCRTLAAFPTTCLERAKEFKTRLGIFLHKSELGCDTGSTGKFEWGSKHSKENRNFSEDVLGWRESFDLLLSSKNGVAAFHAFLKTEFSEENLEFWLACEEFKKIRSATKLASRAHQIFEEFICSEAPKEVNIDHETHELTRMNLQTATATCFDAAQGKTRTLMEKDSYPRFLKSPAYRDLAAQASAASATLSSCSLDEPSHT
Target sequence (P09471 whole entry, looked up): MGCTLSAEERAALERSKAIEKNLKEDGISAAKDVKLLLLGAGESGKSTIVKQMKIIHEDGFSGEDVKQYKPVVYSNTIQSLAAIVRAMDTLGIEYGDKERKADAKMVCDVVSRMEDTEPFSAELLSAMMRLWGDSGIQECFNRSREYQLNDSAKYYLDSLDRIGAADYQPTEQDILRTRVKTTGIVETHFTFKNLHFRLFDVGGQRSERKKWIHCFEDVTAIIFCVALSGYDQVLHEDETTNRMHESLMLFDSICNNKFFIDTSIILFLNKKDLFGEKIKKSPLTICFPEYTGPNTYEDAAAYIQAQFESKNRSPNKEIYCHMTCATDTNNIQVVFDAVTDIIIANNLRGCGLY
PKD1 inh: PKD1 (human) kinase inhibition; Q15139; PKD1 kinase fluorescence polarization assay; inhibition, %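 (about 10 µM by stock and volumes)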; 200,000 compounds, 0.056% hits;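 active = inhibition of 50% or more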;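 also: controls were vehicle for no effect and a reference inhibitor for full effect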
GALR2 agonist: activates the human galanin receptor 2 | GALR2-expressing cells, agonist activation read-out | 140,000 compounds, 0.48% hits | O43603 | activation, %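 (tested at 5 µM)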;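 active = above mean plus 3 SD of all compounds, about 5% in these data, not always enough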;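 also: 0% = vehicle buffer wells and 100% = reference agonist at full effect; tested in CHO reporter cells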
Target sequence (O43603 whole entry, looked up): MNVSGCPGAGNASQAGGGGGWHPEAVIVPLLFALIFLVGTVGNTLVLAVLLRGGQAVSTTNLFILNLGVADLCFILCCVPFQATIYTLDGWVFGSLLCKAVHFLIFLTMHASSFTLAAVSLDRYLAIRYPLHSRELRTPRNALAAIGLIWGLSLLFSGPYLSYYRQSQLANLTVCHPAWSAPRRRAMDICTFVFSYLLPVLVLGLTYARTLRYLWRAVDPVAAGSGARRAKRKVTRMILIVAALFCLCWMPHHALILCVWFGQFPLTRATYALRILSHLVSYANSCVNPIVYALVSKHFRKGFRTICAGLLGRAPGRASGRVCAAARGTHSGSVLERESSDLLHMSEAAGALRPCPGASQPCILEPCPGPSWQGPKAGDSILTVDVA
HSV replic up: increases HSV replication in cells. HSV replication augmentation in cells, fold increase. maximum fold increase. 220,000 compounds, 0.005% hits. AID 1956;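 active = peak rise of 1.5-fold or more in the series; tested in PC3 cells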;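 also: first round at 10 µM; read as green reporter fluorescence; hits show the peak of a series up to 25 µM; 1 = signal of infected wells without compound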
INS promoter inh cell count: further read-out of INS promoter inh, marked with its call; normalized cell count, %; measured here: cell count, toxicity; reference of the scale not given here;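 cells exposed to compound for 48 h; stained nuclei by imaging scaled within each plate; lower means fewer cells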
HSV replic up primary fold: also measured in HSV replic up; calls as there; fold increase; compound at 10 µM; measured here: primary screen fold increase 10 uM; tested in PC3 cells;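 GFP signal in the first replicate; 1 = infected wells without compound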
The depositor's hits bear a star; i = inactive; x = not tested or not shown.

Compound	INS promoter inh	INS promoter inh cell count	RGS16-Gao	PKD1 inh	GALR2 agonist	HSV replic up	HSV replic up primary fold
CC(=O)N(Cc1ccc(F)cc1)Cc1nc2ccccc2c(=O)[nH]1	x	x	103	-1	x	i	0.94
O=C1CN=C(Nc2ccccc2Cl)N1Cc1ccc2c(c1)OCO2	13	142	103	-13	-2.4	i	0.78
CCOC(=O)c1cnc2ccc(C)cn2c1=O	x	x	103	x	x	i	0.96
CCN1C(=O)N(CC)C2NC(=S)NC21 (stereo unspecified)	12	46	100	7	-4.4	i	0.91
COc1cccc(NC(=O)C(NCC(C)(C)CN(C)C)c2ccccc2)c1 (stereo unspecified)	7	108	99	-6	-0.8	x	x
Cc1nc(SCCCSc2n[nH]c(C)n2)n[nH]1	-42	160	115	-4	0.6	i	1
CC(C)n1nnnc1-c1cc(Cl)cc(Cl)c1	x	x	98	-3	-1.8	i	0.83
CCC(C)(C)NC(=O)C(c1ccc(O)cc1)N(C(=O)Cn1nnc2ccccc21)c1ccc(NC(C)=O)cc1 (stereo unspecified)	x	x	97	x	x	i	0.95
COc1ccc(-c2nn(-c3ccccc3C)cc2CNC(C)c2cn(C)nc2C)cc1F (stereo unspecified)	x	x	102	-4	x	i	0.95
CC(=O)N1CCc2cc(S(=O)(=O)NC(CC(C)C)C(=O)Nc3cc(C(=O)O)ccc3C)ccc21 (stereo unspecified)	x	x	110	-5	-0.1	x	x
CC(C)OC(=O)CCCN1C(=O)c2ccc(N)cc2C1=O	5	102	110	1	-2.9	x	x
COc1cccc(-n2c(SCC(=O)N3CCc4ccccc43)nnc2-c2c[nH]c3ccccc23)c1	-10	76	97	-3	0.5	i	0.82
OC(COc1ccccc1)Cn1cc(Br)cn1 (stereo unspecified)	35	110	-13	-6	-2.3	i	0.9
Cc1nn(-c2ccccc2)c2c1C1(C(=O)N(C)c3ccccc31)N(c1ccccc1)C(=O)N2 (stereo unspecified)	-7	62	101	-5	-1.2	i	1.1
CC(=O)c1cccc(NC(=O)C(C)N2CCc3ccccc3C2)c1 (stereo unspecified)	x	x	103	x	x	i	1
CCn1nnnc1NCc1c(OC)ccc2ccccc12	-12	113	108	-5	x	i	0.99
Cc1csc(NC(=O)CN(C)S(=O)(=O)c2cccc3cccnc23)n1	x	x	101	-2	0.3	i	1
COc1ccccc1Nc1nc(-c2ccccc2)nc2ccccc12	-58	92	93	1	x	i	1
NC1=NC(=O)/C(=C/c2c(OS(=O)(=O)c3ccc(Cl)cc3)ccc3ccccc23)S1	-5	82	105	-14	-0.7	i	1.1
Cc1cccc(CSc2ncnc3nc[nH]c23)c1	x	x	105	8	-0.6	i	0.77
Cc1cc(C)n(-c2cc(C(=O)O)cc(C(=O)O)c2)n1	x	x	101	0	x	i	1.1
CCN(CC)CCCNC(=O)C1c2ccccc2C(=O)N(C)C1c1ccc(OC)cc1 (stereo unspecified)	9	90	98	-12	-1.1	i	0.89
Cc1cc(C)nc(NS(=O)(=O)c2ccc(NC(=O)c3cccs3)cc2)n1	21	94	99	1	-2.1	i	0.85
CC1(C(=O)O)CCC(C(=O)NC2CCCCCC2)C1(C)C (stereo unspecified)	33	50	104	-3	-2.6	i	0.8
CC(NC(=O)CCN1N=C(c2ccccc2)CCC1=O)c1ccc2c(c1)OCCO2 (stereo unspecified)	-47	121	44	2	x	i	1.2
CCC(C(=O)NC1CCCC1)N(C(=O)Cn1nnc(-c2cccs2)n1)c1cnc2ccccc2c1 (stereo unspecified)	32	94	76	12	-2.1	i	0.91
CCCOc1ccc(N2C(=O)CC(NCCCN3CCC(C(N)=O)CC3)C2=O)cc1 (stereo unspecified)	-7	87	x	-1	-4.8	x	x
CC1Cc2ccccc2N1C(=O)CSc1ncc(-c2ccc(F)cc2)n1C (stereo unspecified)	x	x	107	4	-0.7	x	x
C/C(=C\C(=O)c1ccccc1)Nc1ccc(O)cc1	-17	114	95	-2	-1.9	i	0.81
O=C(Nc1c(F)cc(F)cc1Br)c1cc(S(=O)(=O)N2CCN(c3ccccn3)CC2)ccc1F	-33	72	85	-3	x	i	0.97
Cc1ccccc1N1CC(O)(c2cccs2)[N+]2=C1CCCC2 (stereo unspecified)	0	94	104	-5	x	x	x
CCCCNC(=O)COC(=O)CNC(=O)c1cc(Cl)cc([N+](=O)[O-])c1	42	113	103	-5	x	i	0.96
O=C(NCc1ccco1)c1ccccc1NS(=O)(=O)c1ccc2c(c1)OCCO2	15	150	104	-8	-0.4	i	0.89
C=CCNC(=S)NNC(=O)c1cccnc1	x	x	83	x	x	i	0.83
Cc1cc(C)c(N2C(=O)C3C4CC(=O)C(c5ccccc54)C3C2=O)c(C)c1 (stereo unspecified)	x	x	107	x	x	i	0.93
O=C(Nc1cccc2nsnc12)c1ccc(-c2cccc(Cl)c2)o1	3	107	102	8	6.0	i	1.1
Cc1nn(-c2ccccc2)c2sc(-c3nnc(SCC(=O)O)o3)cc12	0	105	91	2	-1.5	i	0.87
COc1ccc(NC(=O)CCC2CCCC2)cc1OC	-7	113	98	-6	-0.6	i	0.99
Cc1cccc(N=Nc2c(N)n[nH]c2-c2ccc(Cl)cc2)c1	19	100	98	-8	-1.7	i	0.89
O=C(N/N=C/c1cccc([N+](=O)[O-])c1)C1COc2ccccc2O1 (stereo unspecified)	x	x	99	0	x	i	0.9
COC(=O)c1ccc(NC(=O)C2C3CCC(C3)C2C(=O)O)cc1 (stereo unspecified)	33	121	101	-8	1.7	i	0.84
COc1ccc(F)cc1CN1CCN(C(=O)CCC(=O)Nc2nnc(C(C)C)s2)CC1	x	x	106	-3	-1.7	i	0.84
Cc1cccc(C(=O)N/N=C/c2cc(Br)c(Br)o2)c1	50	105	89	-1	-1.4	i	0.9
Cc1onc(C(=O)Nc2sc3c(c2C#N)CCCC3)c1[N+](=O)[O-]	29	97	101	-1	x	i	0.9
O=C(NCc1nnc(SCC(=O)N2CCc3ccccc32)o1)c1cccs1	29	47	104	-8	x	i	1
Cc1ccc(NCc2ccc(Cl)nc2)c(NCc2ccc(Cl)nc2)c1	x	x	103	-5	x	i	1
N#Cc1ccc(Oc2cccc(C(=O)O)c2)cc1C#N	x	x	100	1	-2.7	i	0.98
O=C(OCc1nc2ccccc2[n+]([O-])c1C(=O)c1ccccc1)c1cccnc1	x	x	105	x	x	i	0.94
N/C(=N\OC(=O)c1ccccc1)c1ccccn1	x	x	100	-3	x	i	0.89
CCS(=O)(=O)Nc1ccc2c(c1)OCO2	33	106	107	-3	x	i	1.2
Cc1c(C(=O)NCc2cccnc2)oc2ccc(S(=O)(=O)N3CCC4(CC3)OCCO4)cc12	25	91	97	-7	-1.1	i	0.95
COC(=O)c1c(C)nc2nonc2c1N	-84	89	105	-3	x	i	0.97
COc1ccc2c(CN3CCN(S(=O)(=O)c4cccs4)CC3)cc(=O)oc2c1	-7	30	100	-18	-1.1	i	0.91
Cc1cc(C)cc(NC(=O)N2CCCC2C(=O)Nc2ccc(-n3cnnn3)cc2)c1 (stereo unspecified)	4	106	105	-2	-2.2	i	0.9
Cc1ccc(CNc2ncccc2-c2nc3cc(Cl)ccc3o2)cc1	7	101	101	9	-2.4	i	0.93
CCCCn1c(NC(C)CC)nc2c1c(=O)[nH]c(=O)n2C (stereo unspecified)	65	174	102	-7	0.8	i	0.89
CC1(C)CC(=O)C2=C(C1)N(Cc1cccnc1)C(=O)C2(NC(=O)C1CC1)C(F)(F)F (stereo unspecified)	-22	121	118	-4	-0.6	i	0.92
CC1(C)CC(NCCC(c2ccccc2)c2ccco2)CCO1 (stereo unspecified)	x	x	97	x	x	i	1
CCNC(=O)c1ccc(C2SCC(=O)N2Cc2ccco2)cc1 (stereo unspecified)	-3	67	91	-1	-1.1	i	1.1
O=C(CSc1nc2ccccc2c(=O)n1-c1ccccc1)c1c[nH]c2ccccc12	-30	111	102	-6	1.5	i	0.91

The list continues.
Compound	INS promoter inh	INS promoter inh cell count	RGS16-Gao	PKD1 inh	GALR2 agonist	HSV replic up	HSV replic up primary fold
Cc1[nH]c2ccc(C(=O)O)cc2c1C	9	82	105	1	-0.6	i	1
COc1ccc(Cc2nn[nH]n2)cc1	37	100	97	-3	-1.0	i	0.94
CCOc1ccc(C(=O)Nc2ccc3c(c2)OCCO3)cc1OC	8	115	102	-13	-1.2	i	0.9
COc1ccccc1NC(=O)Cn1cc(C#N)c2ccccc21	-11	103	101	-1	-1.9	i	0.57
Nc1nc(N2CCOCC2)nc2ccccc12	x	x	94	-2	-1.4	i	1
CC(C)(C)OC(=O)N1CCOCCOCCN(C(=O)OC(C)(C)C)CCOCCOCC1	-33	35	97	4	-0.6	i	0.85
CCOC(=O)N1CCN(C(=O)c2cnc3n(c2=O)CCS3)CC1	-12	155	97	-1	0.1	i	0.91
COc1ccc(C(=O)N2CCN=C2SCc2cccnc2)c(OC)c1	x	x	104	-6	-0.9	i	1
CCCn1nc(C(=O)OCC(=O)c2ccccc2)c2ccccc2c1=O	x	x	99	6	x	i	0.75
COCCNC(=S)N1CCN(c2cccc(C)c2C)CC1	x	x	102	-6	x	i	1
O=C(Nc1ccccc1N1CCOCC1)C1CCN(S(=O)(=O)c2cccc(C(F)(F)F)c2)CC1	11	106	112	-8	1.4	i	0.87
CCOC(=O)c1csc(NC(=O)CSc2nnnn2-c2ccc3c(c2)OCCO3)n1	29	87	100	-3	-2.4	i	0.93

Among those listed so far, these have a nitro group on carbon:
Compound	INS promoter inh	INS promoter inh cell count	RGS16-Gao	PKD1 inh	GALR2 agonist	HSV replic up	HSV replic up primary fold
CCCCNC(=O)COC(=O)CNC(=O)c1cc(Cl)cc([N+](=O)[O-])c1	42	113	103	-5	x	i	0.96
O=C(N/N=C/c1cccc([N+](=O)[O-])c1)C1COc2ccccc2O1 (stereo unspecified)	x	x	99	0	x	i	0.9
Cc1onc(C(=O)Nc2sc3c(c2C#N)CCCC3)c1[N+](=O)[O-]	29	97	101	-1	x	i	0.9

New compounds follow
Compound	INS promoter inh	INS promoter inh cell count	RGS16-Gao	PKD1 inh	GALR2 agonist	HSV replic up	HSV replic up primary fold
O=C(O)c1ccc(SCc2cnc(Cl)s2)cc1	43	165	101	5	-3.7	i	1.1
CS(=O)(=O)CCSc1ncccc1C(=O)NCc1cccs1	x	x	103	x	x	i	1.2
Cc1ccccc1N1Cc2ccccc2C1	6	101	111	-12	0.0	i	1
Cc1csc(SCC(=O)Nc2cc(C(C)(C)C)nn2-c2ccccc2)n1	22	93	107	-5	-1.3	i	0.93
O=C(Cn1nnc(-c2ccccc2F)n1)NCc1ccco1	26	116	100	8	x	i	0.96
Cc1cccc(NC(=O)C(=O)NCCCN2CCOCC2)c1	-3	143	105	-7	x	i	0.84
Cc1cc(=O)oc2cc(O)c(N=Nc3ccccc3)cc12	x	x	106	x	x	i	0.78
Cc1ccccc1CC1(CO)CCCN(C(=O)c2ccc(F)cc2)C1 (stereo unspecified)	x	x	95	-3	x	i	1.1
CCCOc1ccc(C(=O)CCC(=O)OCC(=O)Nc2ccc(Oc3ccccc3)cc2)cc1	x	x	97	-9	-1.2	i	0.86
Cn1c(=O)n(Cc2ccccc2)c(=O)c2c1nc1n2CCS1	-11	148	102	-24	-2.5	i	0.97
Cc1cccc(-c2n[nH]c(=S)n2/N=C/c2ccco2)c1	x	x	100	x	x	i	1.1
Cc1occc1C(=O)NCCCc1ccccc1	-19	95	97	-8	-0.4	i	1
CCCCn1c(=N)n(CC(O)COc2cccc(C)c2)c2ccccc21 (stereo unspecified)	-36	61	100	1	-2.6	i	0.68
O=C(c1ccc(Cl)c(Cl)c1)N1CCC(O)(CN2CCOCC2)CC1	44	87	100	2	x	i	1
O=C(COC(=O)/C=C/c1cccc(F)c1)Nc1ccccc1	x	x	100	-1	x	i	0.85
O=C(c1cc(F)c(F)cc1Cl)N1CCCCC1	x	x	99	-11	-0.3	i	0.97
CN1CCN(C(CNS(=O)(=O)c2cccs2)c2cccnc2)CC1 (stereo unspecified)	x	x	-5.6*	-2	x	i	0.76
O=[N+]([O-])c1cccc(-c2noc(COc3ccccc3)n2)c1	x	x	101	4	x	i	0.92
CN1CCN(/N=C/c2ccc(N(C)c3ccccc3)cc2)CC1	-5	111	100	2	x	i	0.89

High-throughput results as filed in PubChem BioAssay.
